# Mtb H37Rv: Mycobacterium tuberculosis H37Rv growth inhibition, cell based, confirmatory dose response (AID 1949). most inactive calls were filed without a number and no value below 0 was filed. inhibition, % at 10 µg/mL; hits with a dose series show IC50 in µg/mL. hit rate 1.6% among 100,000;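 active means confirmed in a dose series; inconclusive means about 50% or more but not retested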;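 further: bacteria grown 7 days with compound before Alamar blue readout; 0% = untreated bacteria and 100% = reference antibiotic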
# Active calls of the source: *; i = inactive; ? = inconclusive. These rows are one share of the data; count on the stated rates, not on these rows.
# The opening four records as a preview:
compound | Mtb H37Rv
CC(=O)Oc1ccc(C(=O)Nc2cc(-c3nc4ccccc4[nH]3)ccc2C)cc1 | i
Cc1cc(I)ccc1NC(=O)C(C)Oc1ccc(Cl)cc1Cl (centres undefined) | i
O=c1cc(-c2ccccc2)c2cc3c4c(oc3cc2o1)CCCC4 | i
O=c1c2ccccc2nc(SCc2cccc(F)c2)n1Cc1ccco1 | 4%

# The whole of this part, from the first entry:
compound | Mtb H37Rv
CC(=O)Oc1ccc(C(=O)Nc2cc(-c3nc4ccccc4[nH]3)ccc2C)cc1 | i
Cc1cc(I)ccc1NC(=O)C(C)Oc1ccc(Cl)cc1Cl (centres undefined) | i
O=c1cc(-c2ccccc2)c2cc3c4c(oc3cc2o1)CCCC4 | i
O=c1c2ccccc2nc(SCc2cccc(F)c2)n1Cc1ccco1 | 4%
COc1ccc(C(=O)Nc2ccc(I)cc2)cc1[N+](=O)[O-] | i
Cc1ccccc1CNCCN1CCOCC1 | i
CCOC(=O)c1cc(C(C)C)sc1NC(=O)CCCC(=O)O | i
Cc1ccc(N(CC(=O)NCCSCc2ccccc2)S(=O)(=O)c2ccc(F)cc2)cc1 | i

# Further entries follow.
compound | Mtb H37Rv
O=C1CC(Sc2ncccn2)C(=O)N1c1ccc(Cl)c(Cl)c1 (centres undefined) | i
Cc1ccc(Cl)cc1NS(=O)(=O)c1cccc2c1C(=O)c1ccccc1C2=O | i
COc1ccccc1NS(=O)(=O)c1cccc(F)c1 | i
CCC1CCCCN1Cc1c(C)[nH]c2c(C)c(C)ccc2c1=O (centres undefined) | 3%
COc1ccc(NC(=O)c2cccnc2)c(C)c1 | i
O=C(C1CCCN(Cc2ccccc2Br)C1)N1CCCC1 (centres undefined) | i
CC(=O)COc1ccc2ccc(=O)oc2c1 | i
COc1ccc(C(=O)CSc2nnc(-c3ccncc3)o2)cc1 | i

# Continued.
compound | Mtb H37Rv
CCOC(=O)c1ccc(NC(=S)Nc2ccc(C)cc2)cc1 | ?
CCc1cccc(C)c1NC(=O)CSCc1ccccc1C | 3%
COc1ccc(C(NC(=O)C(c2ccccc2)C(C)C)c2ccccc2)cc1 (centres undefined) | i
Cc1cc(C)nc(Nc2n[nH]c(Cc3ccccc3)n2)n1 | 2%
O=C(Nc1cccc2ccccc12)OCC(F)(F)F | 3%
Cc1cccc(N2CCN(Cc3nc4ccccc4c(=O)n3-c3ccc(F)cc3)CC2)c1C | i
CCc1ccc(N2C(=O)CN(CC(=O)OC)C2=S)cc1 | i
O=C(NCc1ccco1)c1ccc2c(=O)n(CCC3=CCCCC3)c(=S)[nH]c2c1 | i

# (next part)
compound | Mtb H37Rv
CCOCCc1nnc(NC(=O)c2ccccc2F)s1 | i
COc1cccc(C2Nc3ccccc3NC3=C2C(=O)CC(c2cccs2)C3)c1OC (centres undefined) | i
CC(=O)Nc1ccc(Br)cc1C(=O)C(=O)O | i
CCC(C)c1ccc(NC(=S)Nc2nn(Cc3ccccc3Cl)cc2Cl)cc1 (centres undefined) | i
CCOc1cccc(OCCCCN(C)Cc2ccccc2)c1 | i
Cc1cccc(OC(C)C(=O)Nc2cc(C(F)(F)F)ccc2Cl)c1C (centres undefined) | 2%
O=C(Nc1c(C(=O)N2CCCC2)cnn1-c1ccccc1Cl)c1ccccc1Cl | i
Cc1ccccc1OCC(=O)Nc1ccccc1NC(=O)c1ccco1 | i

# (next part)
compound | Mtb H37Rv
O=C(Cc1ccccc1F)NCc1cccs1 | i
CCOc1ccc(NC(=O)C2CC=CCC2C(=O)O)c([N+](=O)[O-])c1 (centres undefined) | i
Cc1cc(C)cc(CC(C)CC(=O)Nc2cccc(Cl)c2C)c1 (centres undefined) | 1%
CCOc1ccc(NC(=O)C(C)Sc2nnc(-c3ccccc3)n2Cc2ccccc2)cc1 (centres undefined) | i
CC1CCCCN1C(=O)c1cccc(NC(=O)c2ccccc2)c1 (centres undefined) | i
O=C(CSc1nc2ccc(I)cc2c(=O)[nH]1)NCc1ccccc1 | i
Cc1ccc(C(O)(c2ccccc2)c2nc3ccccc3n2C)cc1 (centres undefined) | i
O=S(=O)(Nc1ccc(I)cc1)c1cccs1 | 1%

# (listing goes on)
compound | Mtb H37Rv
CCCn1nnc(NC(=S)NC(=O)c2cc3ccccc3o2)n1 | i
CCOC(=O)N1CCC(Nc2nc(OC)nc(OC)n2)CC1 | i
COc1ccc(S(=O)(=O)NC(c2ccccc2)c2ccccc2)cc1OC | 0%
N#Cc1cccc(NC(=O)c2cc(Cl)ccc2Cl)c1 | i
O=C(Nc1ccc(Br)cc1F)c1ccc(CN2CCOCC2)cc1 | i
COc1ccc(Cl)cc1C(=O)NCc1cccc(CNC(=O)c2cc(Cl)ccc2OC)c1 | 2%
O=C(Nc1ccccc1F)C1CC2CCC1C2 (centres undefined) | i
Cc1sc2ncnc(Nc3ccc(N4CCOCC4)cc3)c2c1C | i

# Additional results follow:
compound | Mtb H37Rv
C=CCn1c(C(O)c2ccccc2)n[nH]c1=S (centres undefined) | i
O=C1NC(=O)C2C1ON(c1ccccc1)C2c1ccccc1 (centres undefined) | i
COc1cccc(NC(=O)CCSc2ccc(C)cc2)c1 | i
O=C(NC1CCCCC1)N1CCN(C2CCCCC2)CC1 | i
CN(c1ccccc1C(=O)Nc1ccc2c(c1)OCO2)S(C)(=O)=O | i
Nc1nnc(SCC(=O)Nc2ccc(F)c(Cl)c2)n1-c1ccccc1 | i
O=C1c2ccccc2C(=O)N1OCc1ccccc1 | i
Cc1ccc(Cl)cc1NC(=O)Cn1cnc2c1c(=O)n(C)c(=O)n2C | i

# (next part)
compound | Mtb H37Rv
COc1ccc(S(=O)(=O)N(CC(=O)Nc2cccc([N+](=O)[O-])c2)c2cc(C)cc(C)c2)cc1OC | i
Cc1sc2ncn(CC(=O)N3CCCCC3)c(=O)c2c1C | i
CC(C)(C)c1ccc(Oc2nnnn2-c2ccc(C(N)=O)cc2)cc1 | i
Cc1c(OCc2n[nH]c(=S)n2C)ccc2ccccc12 | 18%
COc1ccc2oc3ccc(OC)cc3c(=O)c2c1 | i
COC(=O)c1ccccc1NC(=O)C(NC(=O)c1cccs1)c1ccccc1 (centres undefined) | 3%
CC(=O)c1sc(-c2ccccc2F)nc1C | 3%
O=C(CN1C(=O)c2cccc3cccc1c23)Nc1ccc(Br)cc1 | i

# Other results:
compound | Mtb H37Rv
CN(CC(=O)Nc1cccc([N+](=O)[O-])c1)S(=O)(=O)c1ccccc1 | i
COC(=O)c1cc(OC)c(OC)cc1NC(=S)Nc1ccc2c(Cl)c(C(=O)OC)sc2c1 | 3%
CCc1ccc(OCCN2CCCCC2)cc1 | i
CCc1ccc(NC(=O)CN(Cc2ccc(C)cc2)S(=O)(=O)c2ccccc2)cc1 | i
COc1ccc(S(=O)(=O)NCc2ccc(CNS(=O)(=O)c3ccc(OC)cc3)cc2)cc1 | i
N#CCc1ccc(NC(=O)C2CCCCC2)cc1 | i
COC(=O)c1sc(S(=O)(=O)Nc2ccc(Br)cc2)c(C(=O)OC)c1C | i
Cc1ccc(CC(=O)Nc2ccc(S(=O)(=O)N3CCCCCC3)cc2)cc1 | i

# (next part)
canonical_smiles,Mtb H37Rv
COC(=O)COC(=O)c1ccccc1NC(=O)c1ccccc1,i
CN1C(=O)C(=O)N(c2cccc(Br)c2)C1=O,i
O=C1CCCC2=C1C1(CCCCC1)N=C(Nc1nc3ccccc3s1)N2,2%
CCOc1cccc(C(=O)N2CCN(c3ccc([N+](=O)[O-])c(NC)c3)CC2)c1,i
CCC(CC)C(=O)Nc1nnc(CC(C)C)s1,i
CCC(=O)NC(=S)Nc1ccc(-c2nc3cc(CC)ccc3o2)cc1,49%
O=C(CCc1ccc(S(=O)(=O)NCCc2ccccc2)cc1)NC1CCCCCC1,i
O=C(CCc1ccccc1)OCC(F)(F)C(F)F,i

# Ordered by number of heavy atoms (lowest first): seven of the compounds above
canonical_smiles,Mtb H37Rv
CN1C(=O)C(=O)N(c2cccc(Br)c2)C1=O,i
CCC(CC)C(=O)Nc1nnc(CC(C)C)s1,i
O=C(CCc1ccccc1)OCC(F)(F)C(F)F,i
CCC(=O)NC(=S)Nc1ccc(-c2nc3cc(CC)ccc3o2)cc1,49%
O=C1CCCC2=C1C1(CCCCC1)N=C(Nc1nc3ccccc3s1)N2,2%
Cc1ccc(CC(=O)Nc2ccc(S(=O)(=O)N3CCCCCC3)cc2)cc1,i
O=C(CCc1ccc(S(=O)(=O)NCCc2ccccc2)cc1)NC1CCCCCC1,i

# Other compounds.
canonical_smiles,Mtb H37Rv
CCOc1ccc(S(=O)(=O)Nc2ccc(S(=O)(=O)Nc3cc(Cl)ccc3C)cc2)cc1,i
Nc1nncn1C(=O)c1ccc(Cl)c(Cl)c1,i
CCc1cc(=O)oc2cc(C)cc(OCc3ccc(C(=O)OC)cc3)c12,i
CCOC(=O)c1ccc(NC(=O)CC2C(=O)N(c3ccccc3)C(=O)N2CCc2ccc(OC)c(OC)c2)cc1 (centres undefined),21%
COC(=O)CN(c1cccc(Cl)c1)S(C)(=O)=O,i
Cc1cccc(NC(=O)/C=C/C(=O)O)c1C,0%
O=C(Nc1ccc(F)cc1F)N1CCN(Cc2cccc(F)c2)CC1,i
CCOC(=O)c1c(N)nn(C(=O)Cc2ccccc2)c1-c1ccccc1,2%

# More compounds:
canonical_smiles,Mtb H37Rv
CCOC(=O)c1sc(NC(=O)c2c(F)c(F)c(F)c(F)c2F)nc1C,i
CC(C)c1ccc(NC(=O)C2Cc3ccccc3C(=O)O2)cc1 (centres undefined),i
CS(=O)(=O)N(CC(=O)Nc1ccccc1C(=O)NCc1ccco1)c1cc(C(F)(F)F)ccc1Cl,i
CC1CCc2c(sc3ncnc(NCc4ccc5c(c4)OCO5)c23)C1 (centres undefined),10%
CCC(=O)c1ccc(OC(=O)Cc2ccc(OC)cc2)cc1,i
CCC(=O)N1CCN(c2ccccc2NC(=O)c2ccc(Br)o2)CC1,i
Cc1cc(=O)oc2c1ccc1ccccc12,i
O=c1c2cc(Cl)cc(Cl)c2nc(CN2CCOCC2)n1-c1ccccc1C(F)(F)F,i

# (listing goes on)
canonical_smiles,Mtb H37Rv
COc1ccc(Cl)cc1NC(=O)c1ccc(-c2ccccc2[N+](=O)[O-])o1,3%
Fc1ccc(OCCN2CCCCCC2)cc1,i
CN(Cc1ccncc1)C1CC(=O)N(c2ccc(F)cc2)C1=O (centres undefined),i
CC(=O)N1CCN(C(=O)C23CC4CC(C)(CC(C)(C4)C2)C3)CC1,i
COC(=O)COc1ccc(S(=O)(=O)N2CCCCCC2)cc1,?
CCCCc1ccc(NC(=O)Cc2ccc(F)cc2)cc1,2%
COc1ccc(CCC(=O)N2c3ccccc3CC2C)cc1 (centres undefined),0%
Cc1cc(C)cc(NC(=S)NC(=O)Cc2ccc(Cl)cc2)c1,i

# The list goes on.
canonical_smiles,Mtb H37Rv
CN1CCN(CC(=O)NC2CCCCC2)CC1,i
CCOC(=O)c1c(NC(=O)Cn2nnc(-c3ccccc3)n2)sc2c1CCCC2,i
CCC(C)NC(=O)c1ccccc1NC(=O)CN(c1ccccc1OC)S(=O)(=O)c1ccc(OC)cc1 (centres undefined),i
CC1CN(CCOCCSc2ccc(Cl)cc2)CC(C)O1 (centres undefined),i
O=C(NCc1ccc(Cl)c(Cl)c1)c1ccc(F)cc1,i
CCOc1ccc(-c2nn3c(-c4ccc(F)cc4)nnc3s2)cc1,i
c1ccc2c(OCCN3CCCCC3)cccc2c1,i
CCC(=O)NCCCCNC(=O)CC,i

# (listing goes on)
canonical_smiles,Mtb H37Rv
CCCCOc1c(I)cc(C(=O)O)cc1OCC,3%
CC(C)c1ccc(C(=O)N2CCN(c3ccc([N+](=O)[O-])c(N4CCCCC4)c3)CC2)cc1,10%
COc1ccc(N2CCN(S(=O)(=O)c3ccc4ccccc4c3)CC2)c([N+](=O)[O-])c1,2%
O=C(NCc1ccco1)c1ccc(Cl)cc1[N+](=O)[O-],i
O=C(c1ccc(Cn2cc(Br)cn2)cc1)N1CCN(C(=O)c2ccco2)CC1,i
COc1cccc(-c2nn(-c3ccccc3)cc2C(=O)n2nnc3ccccc32)c1,i
Cn1c2c(c(=O)[nH]c1=O)C(C(F)(F)F)(C(F)(F)F)NC(=O)N2,i
Cc1cc(=O)oc2cc(Nc3ccccc3)ccc12,i

# Later entries.
canonical_smiles,Mtb H37Rv
Cc1ccc(NC(=O)c2ccccc2NC(=O)c2ccco2)cc1Cl,i
CC1CCc2c(sc3ncnc(SCC(=O)NCc4ccco4)c23)C1 (centres undefined),i
CC(=O)c1cccc(NC(=S)NC(=O)CCCOc2ccc(C)cc2)c1,1%
CNS(=O)(=O)c1cc(-c2nnc(Nc3ccc(NC(C)=O)cc3)c3ccccc23)ccc1C,i
O=C(NC(=S)Nc1cccnc1)c1ccc(-c2cccc(Cl)c2Cl)o1,i
CN(C(=O)c1ccc(COc2ccccc2Br)o1)c1ccccc1,0%
O=C(NCc1ccco1)/C(=C\c1ccco1)NC(=O)c1ccccc1Cl,?
CN1CCN(C2CCN(Cc3ccccc3)CC2)CC1,1%

# The list continues.
canonical_smiles,Mtb H37Rv
CC(C)n1c(-c2ccccc2F)n[nH]c1=S,4%
COc1cc(C=O)ccc1OC(=O)c1nsc(Cl)c1Cl,i
Cc1cc2oc(C(=O)NC3CCS(=O)(=O)C3)c(C)c2cc1C (centres undefined),i
Cc1cc(C)nc(NS(=O)(=O)c2ccc(Nc3ncnc(N)c3[N+](=O)[O-])cc2)n1,i
CCOc1ccc(-c2nnc(NC(=O)c3ccccc3F)s2)cc1,i
O=C(c1ccccc1Cl)N(Cc1ccc(F)cc1)C1CCS(=O)(=O)C1 (centres undefined),8%
COc1ccc(C2(CNC(=O)c3ccccc3OC)CCCC2)cc1OC,i
CC1(C)Cc2nc3sc4c(=O)n(CC(=O)NCCc5ccccc5)cnc4c3cc2CO1,i

# (list continues)
canonical_smiles,Mtb H37Rv
COc1ccc(N(CC(=O)Nc2ccc(F)c(F)c2)S(C)(=O)=O)cc1OC,3%
CCC(=O)N(c1ccc(C(=O)OC)cc1)c1nc(-c2ccc(Cl)cc2)c(C)s1,i
Cc1ccc(N(CC(=O)NC2CCCC2)S(C)(=O)=O)cc1,i
Cc1cc(OCC(=O)NC2CCCCC2)cc(C)c1Br,i
CCCC(=O)NC(c1cccs1)c1cc([N+](=O)[O-])c2cccnc2c1O (centres undefined),i
